# FEN1 inhibitor: inhibitors of human flap endonuclease 1; P39748; Recombinant FEN1 flap cleavage, fluorescence, 15 min; Potency, µM (doses to about 114 µM), for the others: at the highest dose activity change, negative = inhibition, most hits filed as inhibitors; 0.35% of 390,000 active; active = well fitted inhibition curve with a large enough effect; note: nearly all actives have a fitted effect of over 65% in size
# Target sequence (P39748 whole entry, looked up): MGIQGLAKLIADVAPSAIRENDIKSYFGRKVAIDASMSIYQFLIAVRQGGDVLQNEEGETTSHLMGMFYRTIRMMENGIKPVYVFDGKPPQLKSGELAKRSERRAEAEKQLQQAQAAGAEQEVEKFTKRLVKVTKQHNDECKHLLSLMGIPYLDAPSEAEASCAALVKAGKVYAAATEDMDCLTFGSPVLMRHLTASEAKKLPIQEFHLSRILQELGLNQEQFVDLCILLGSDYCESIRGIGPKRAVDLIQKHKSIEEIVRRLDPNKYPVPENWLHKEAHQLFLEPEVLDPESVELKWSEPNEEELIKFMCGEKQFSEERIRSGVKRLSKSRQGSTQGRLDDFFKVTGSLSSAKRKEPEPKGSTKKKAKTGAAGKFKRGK
#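 Compounds are tested as a concentration series against 10 nM FEN1; after a 15 min room-temperature preincubation, 50 nM substrate starts cleavage, with plate reads at 0 and 15 min. Normalized responses are fitted by a Hill equation.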
# * = called active by the depositor. % is set by controls: 0 for no effect and ±100 for the full control effect; potency is the fitted concentration of half-maximal effect.
cpd	SMILES	FEN1 inhibitor
1	Cc1cc(C)n(-c2cc(Cl)ccc2[N+](=O)[O-])n1	4.7%
2	CC1Cc2ccccc2N1C(=O)COc1ccc2c(c1)OCO2 (stereo unspecified)	11.0%
3	COC(=O)c1ccc(NC(=O)Nc2ccccc2C)cc1	1.5%
4	O=C(c1cc(=O)[nH]c2ccccc12)N1CCN(c2cccc(C(F)(F)F)c2)CC1	0.9%
5	CC(C)c1ccc(OCc2ccc(C(=O)NN3CCN(C)CC3)o2)cc1	2.2%
6	Cc1nnc(NC(=O)c2ccccc2Oc2ccccc2)s1	4.4%
7	Cc1cccc2nc(CSc3nnc(N)s3)cn12	-1.2%
8	CC(C)(C)C(C(=O)O)N1CCS(=O)(=O)CC1 (stereo unspecified)	-0.8%
9	COCCN(C(=O)COC(=O)/C=C/c1cccc(OC)c1)c1c(N)n(CC(C)C)c(=O)[nH]c1=O	-8.7%
10	CCC(c1nnc(SCC(=O)Nc2ccc(C(N)=O)cc2)n1Cc1ccccc1)N(C)C (stereo unspecified)	4.5%
11	Cc1nn(-c2ccccc2)c(Cl)c1C(=O)NCc1ccccc1F	1.5%
12	COc1ccc(C)cc1S(=O)(=O)N(C)CC(=O)NC1CCCCC1	4.1%
13	CCc1nnc(NC(=O)C2CC(=O)N(CCc3ccccc3)C2)s1 (stereo unspecified)	-1.1%
14	COc1ccc(S(=O)(=O)Nc2ccccn2)cc1C	-1.1%
15	CCN(CC)C(=O)CSc1nc2cccnc2n1-c1ccccc1OC	-1.2%
16	COc1ccc(C(=O)N(CN2CCCC2=O)c2ccccc2OC)cc1OC	9.0%
17	CNc1ccccc1C(C)(C)c1cc(-c2ccco2)n[nH]1	1.7%
18	O=C(c1ccccc1)c1ccccc1	21.8%
19	O=C(OCn1cncn1)c1ccc(Cl)cc1Cl	8.6%
20	COc1ccc(NC(=S)Nc2ccccc2OC)c(OC)c1	-2.9%
21	CCOC(=O)C1CCCN(c2c(NCCCN(CC)c3ccccc3)c(=O)c2=O)C1 (stereo unspecified)	-4.1%
22	Cc1cc(/C=N/NC(N)=O)c(C)c(CO)c1	-4.5%
23	CCOC(=O)c1cnc(SC2CC(=O)N(c3ccccc3)C2=O)nc1N (stereo unspecified)	5.6%
24	CC(=O)Nc1ccc(S(=O)(=O)Oc2ccc(C(=S)N3CCCCC3)cc2)cc1	-11.2%
25	Cc1cccc(C)c1N1CCN(C(=O)Cn2cncn2)CC1	-1.9%
26	O=C(COc1cccc2cccnc12)N/N=C1\SCC(=O)N1CCc1ccccc1	-0.3%
27	C/C=C/C(=O)N1CC2(CC(c3cccc(NC(=O)/C(C)=C/C)c3)=NO2)C[C@H]1C(N)=O (stereo partly specified)	11.0%
28	Cc1ccccc1C(=O)Nc1ccnn1C1CCN(C(=O)c2cnsn2)CC1	-15.6%
29	COc1ccc2nc(C)cc(SCC(=O)N/N=C/c3ccco3)c2c1	12.7%
30	Cc1cc(C)n2nc(NCc3cccc(Br)c3)nc2n1	-6.3%
31	N#Cc1ccc(/C=N/N=C(N)N)cc1	8.9%
32	COc1cc(C2SCCS2)cc(Br)c1Oc1ncccc1[N+](=O)[O-]	0.5%
33	Clc1ccc(-c2nnc3ccccn23)cc1	-2.5%
34	COc1ccc(C(=O)Nc2c(N)nc(SCC(=O)c3ccccc3)[nH]c2=O)cc1	11.2%
35	COc1ccc(CNC(=O)Cc2ccc(-c3ccccc3)cc2)cc1OC	-5.0%
36	O=C(NCCSCc1ccc(Cl)cc1Cl)c1ccc(CN2CCOCC2)cc1	-0.4%
37	COc1ccc(C(=O)C2CCCN(C(=O)c3cc(C)on3)C2)cc1F (stereo unspecified)	-4.0%
38	Cc1cc(C(=O)N/N=C/c2ccc(C)s2)n[nH]1	6.9%
39	Cn1c(=O)c2ncn(CC(=O)N/N=C/c3ccco3)c2n(C)c1=O	-2.4%
40	COc1cc(NC(=O)C2=C(N3CCOCC3)/C(=C\c3ccc(Br)cc3)CC2)cc(OC)c1OC	-4.5%
41	COc1ccc(CNC(=O)C(C)NS(=O)(=O)c2ccc(C)cc2)cc1 (stereo unspecified)	-13.4%
42	O=C(N=C1SC2CS(=O)(=O)CC2N1c1ccc(Cl)cc1Cl)C1CCCO1 (stereo unspecified)	19.4%
43	COc1ccc(NC(=O)CSc2nnnn2-c2ccc(OC)cc2)cc1	11.9%
44	CC1CCCN(C(=O)c2cc3ccccc3cc2O)C1 (stereo unspecified)	-8.3%
45	Cc1cc(C)c(S(C)(=O)=O)c(Oc2ccccc2C)n1	5.3%
46	O=C(CSc1ccc(Br)cc1)Nc1ccccc1N1CCOCC1	5.1%
47	COc1ccc(Cc2n[nH]c(=S)n2N)cc1OC	-3.0%
48	COc1ccccc1NC(=O)NNC(=O)CCN1CCOCC1	15.4%
49	O=C(CCCN1CC=C(n2c(=O)[nH]c3ccccc32)CC1)c1ccc(F)cc1	-5.1%
50	O=C(CNC(=O)c1ccco1)OCc1cccc(Cl)c1	-5.3%
51	C/C(=N\O)C(=O)NCCCn1ccnc1	10.2%
52	CCOC(=O)c1sc(C)c2c(=O)n(CC)nnc12	-4.4%
53	COc1ccccc1NC(=O)c1ccc(C)s1	-3.2%
54	Cc1ccc2oc(C(=O)Nc3ccc(S(=O)(=O)Nc4ncccn4)cc3)c(C)c2c1	11.8%
55	O=C(c1cc2c(s1)CCC2)N1CCN(c2ccccc2)CC1	-10.5%
56	Cn1cc2ccc([N+](=O)[O-])cc2n1	16.4%
57	CN(CC1CCOCC1)C(=O)CC1C(=O)NCCN1CC(c1ccccc1)c1ccccc1 (stereo unspecified)	-10.6%
58	COc1ccc(C(=O)COC(=O)c2ccccc2C(=O)N(C)c2ccccc2)c(OC)c1	-3.3%
59	Cc1nn2c(-c3ccc(Cl)cc3)nnc2s1	-1.0%
60	CCOc1ccc(C(=O)NCC(=O)NCCCSc2ccccc2)cc1OCC	-3.0%

# Following part
cpd	SMILES	FEN1 inhibitor
61	CCOC(=O)N1CCN(S(=O)(=O)c2ccc(NC(C)=O)cc2)CC1	2.0%
62	Cc1ccc(C(=O)N/C(=C\c2ccc(-c3ccc(Br)cc3)o2)C(=O)NC2CCS(=O)(=O)C2)cc1 (stereo unspecified)	-1.7%
63	O=C(NNC(=O)c1ccccc1OCc1ccc(F)cc1)c1ccncc1	-0.6%
64	Cc1ccccc1/C=C/C(=O)NCC(=O)N1CCC(N(C)C2CCCCC2C)CC1 (stereo unspecified)	21.3%
65	COc1ccc(CNC(=O)CCc2ccc(S(=O)(=O)N3CCCCCC3)cc2)cc1OC	-4.6%
66	CCn1nc(C)cc1C(=O)n1nc(C)c(Sc2ncccn2)c1C	7.6%
67	O=C(C1CCCCC1)N1CCc2[nH]c3ccc(F)cc3c2C1	-12.3%
68	Cc1c(Br)cc(C(=O)OC2CCN(C)CC2)c(C)c1C	0.1%
69	CCN(CC)S(=O)(=O)c1ccc(N2CCOCC2)c(NC(=O)c2cnccn2)c1	-1.7%
70	O=C(c1ccco1)N(Cc1cc2ccccc2[nH]c1=O)C1CCCCC1	4.6%
71	COCCCNC(=O)c1ccc2nc3ccccc3c(=O)n2c1	-0.5%
72	c1ccc2c(c1)oc1c(N3CCOCC3)ncnc12	-2.4%
73	CS(=O)(=O)N(CC(=O)Nc1c(F)cccc1F)c1ccc(C23CC4CC(CC(C4)C2)C3)cc1	-4.2%
74	O=C(CSc1nnc(-c2cccs2)n1-c1ccccc1)Nc1ccccc1	4.2%
75	CCN(CC)S(=O)(=O)c1cccc(NC(=O)c2ccc(C#N)cc2)c1	-13.9%
76	COC(=O)c1c(-c2ccco2)csc1NC(=O)C1CC=CCC1C(=O)O (stereo unspecified)	-3.0%
77	CCOC(=O)c1nnn(-c2nonc2N)c1-c1cccs1	-8.1%
78	C=CCNC(=S)Nc1c(C(=O)OC)[nH]c2cc(OC)ccc12	13.3%
79	COc1ccc(OC)c(NC(=S)NC(=O)c2ccc(Br)o2)c1	-4.1%
80	O=S(=O)(c1cccc2cccnc12)N1CCCCC1	-1.4%

# Quoted from above: nos. 1–4
cpd	SMILES	FEN1 inhibitor
1	Cc1cc(C)n(-c2cc(Cl)ccc2[N+](=O)[O-])n1	4.7%
2	CC1Cc2ccccc2N1C(=O)COc1ccc2c(c1)OCO2 (stereo unspecified)	11.0%
3	COC(=O)c1ccc(NC(=O)Nc2ccccc2C)cc1	1.5%
4	O=C(c1cc(=O)[nH]c2ccccc12)N1CCN(c2cccc(C(F)(F)F)c2)CC1	0.9%

# Some of the entries so far, as labelled records:
71: COCCCNC(=O)c1ccc2nc3ccccc3c(=O)n2c1
  FEN1 inhibitor = -0.5%

69: CCN(CC)S(=O)(=O)c1ccc(N2CCOCC2)c(NC(=O)c2cnccn2)c1
  FEN1 inhibitor = -1.7%

# Going on with the list.
cpd	SMILES	FEN1 inhibitor
81	COCC(=O)NNC(=O)c1ccc(OC)cc1	5.0%
82	CCOc1ccc(C(=O)Nc2ccccc2C(=O)O)cc1	-4.5%
83	COc1ccc2nccc(/C=C/c3ccnc4ccc(OC)cc34)c2c1	-6.0%
84	Cc1cc(NC(=O)C(C)SCC(=O)O)no1 (stereo unspecified)	1.9%
85	Cc1ccc(S(=O)(=O)N(CC(O)CN(C)C)c2ccccc2)cc1 (stereo unspecified)	3.9%
86	CCCCN(C(=S)Nc1cccc(C)c1C)c1c(N)n(CCC)c(=O)[nH]c1=O	17.9%
87	COc1ccc(Cn2cc(F)c(=O)n(CCC(C)C)c2=O)cc1[N+](=O)[O-]	1.4%
88	Cc1ccc(CSCCNS(=O)(=O)c2ccc([N+](=O)[O-])cc2)cc1	-3.7%
89	CCn1c(COc2cccc(C)c2)nnc1SCC(=O)CC(=O)Nc1ccccc1OC	-10.9%
90	CC(=O)N1CC23C=CC(CC2CC12CCCCCC2)O3 (stereo unspecified)	0.5%
91	CN1CCN(NC(=O)c2ccccc2F)CC1	-9.3%
92	O=C(NNc1nc2cc3c(cc2s1)OCCO3)c1ccccc1	-10.2%
93	Cc1cnc(C(=O)OCC(=O)c2ccc(Br)s2)cn1	2.0%
94	COc1ccc(S(=O)(=O)NCC(=O)N(CC(=O)NCC2CCCO2)Cc2ccccc2)cc1 (stereo unspecified)	3.5%
95	COc1ccc(CSC2=NCCN2)cc1Cl	-1.4%
96	CCCNc1cc(C)c(C#N)c2nc3ccccc3n12	-14.4%
97	COc1ccc2cc(Br)ccc2c1CC(=O)NC(C)(C)C	-3.1%
98	Cc1n[nH]c(C)c1C(=O)CC1(O)C(=O)N(CCc2ccccc2)c2ccc(Br)cc21 (stereo unspecified)	-20.4%
99	COc1cc(OC)cc(C(=O)OCCCOC(=O)c2cc(OC)cc(OC)c2)c1	-14.4%
100	COc1cc(S(=O)(=O)NCC2OCCc3ccccc32)ccc1-n1cnnn1 (stereo unspecified)	-14.3%
101	CC(=O)c1ccc(C(=O)NC2CCCN(Cc3ccccc3F)C2)s1 (stereo unspecified)	-4.2%
102	Cc1ccc(S(=O)(=O)CC(=O)N(CCCN2CCOCC2)c2nc3c(F)cccc3s2)cc1	-18.3%
103	CC(=O)OCc1cc(-c2nn(C)c(=O)c3ccccc23)ccc1C	-3.8%
104	CC12CCC(=O)N1C(C(=O)NCc1ccccc1Cl)CS2 (stereo unspecified)	-3.5%
105	CCCC(=O)NNC(=O)Nc1ccccc1	-17.4%
106	COC(=O)NCC(c1cccnc1)N1CCN(c2ccccc2OC)CC1 (stereo unspecified)	9.8%
107	CCN(c1ccccc1)S(=O)(=O)c1ccc(C(=O)Nc2nnc(COC)o2)cc1	4.3%
108	COC(=O)C1=CO[C@@H](C)[C@H]2CN3CCc4c([nH]c5ccccc45)[C@@H]3C[C@H]12	-3.4%
109	Clc1nnc(NN=C2CCCC2)c2ccccc12	-14.9%
110	O=C(NCc1ccncc1)NC1CCCCC1	-10.3%
111	COc1ccc2nc(NCCCO)[nH]c2c1	-10.9%
112	CC(C)c1ccc2nc(SCC(=O)NCC3CCCO3)c(C#N)cc2c1 (stereo unspecified)	10.7%
113	COc1cccc(CNC(=O)Cc2c(C(=O)O)[nH]c3ccccc23)c1	-5.5%
114	N#CCCN1CCN(S(=O)(=O)c2ccc(S(=O)(=O)N3CCCC3)cc2)CC1	-6.2%
115	Nc1nnc(SCCOc2ccccc2)s1	-1.3%
116	CCOC(=O)c1ccc(S(=O)(=O)Nc2cc(C(C)(C)C)no2)cc1	-2.3%
117	C=CCN(CC=C)C(=S)NC(=O)c1ccc(C)c(Br)c1	10.6%
118	CC(=O)N1CCN=C1SCc1ccc(Cl)cc1	22.4%
119	CC(C)(C)n1nnnc1CN1CCC(NC(=O)NC2CCCCC2)CC1	-5.6%
120	CC(=O)Nc1ccc(S(=O)(=O)NC(CC(=O)O)c2ccc(C)cc2)cc1 (stereo unspecified)	-10.7%
121	CCCc1nc(N)c(C#N)c(-c2ccco2)c1CC	-7.9%
122	CC(c1ccccc1)N1C(=O)NC(NC(=O)C(C)(C)C)(C(F)(F)F)C1=O (stereo unspecified)	9.3%
123	Cc1nc(Nc2ccc(S(N)(=O)=O)cc2)sc1C(=O)Nc1ccccc1	-5.5%
124	CCOC(=O)N1CCN(S(=O)(=O)c2ccc(C(=O)NNc3nc4cc(C)cc(C)c4s3)cc2)CC1	-22.5%
125	O=C(O)c1ccccc1C(=O)NNc1cccc(Cl)n1	0.2%
126	CC(=O)c1ccc(-n2nncc2C(C)(C)C)cc1	-5.2%
127	O=C(O)c1cccc(S(=O)(=O)Nc2cccc3ccccc23)c1	-2.0%
128	CCCCCN(C(=O)CCC(=O)OCC(=O)N1C(C)CCCC1C)c1c(N)n(CCCC)c(=O)[nH]c1=O (stereo unspecified)	4.6%
129	COc1ccc2c(c1)CCC1C2=NN(/C(C)=C/C(C)=O)C1c1cccc(F)c1 (stereo unspecified)	-10.8%
130	COc1cc(C(F)(F)F)c(C(=O)NCc2cccc(Cl)c2)cn1	3.7%
131	Clc1ccc(-n2nnc(-c3nccs3)n2)cc1Cl	7.0%
132	CN1CCN(c2ccc(NC(=O)COc3cccc4ccccc34)cc2)CC1	-11.4%
133	O=C(Nc1ccccc1Oc1cccnc1)C1CCCN(Cc2ccc(F)cc2)C1 (stereo unspecified)	-12.7%

# Screening data from PubChem.

# Not all compounds are listed, and most or all hits are left out here.
